NPYLR7 agonist: agonists of mosquito NPYLR7 receptor, primary screen, cell-based, Aedes aegypti, calcium fluorescence, mosquito biting behavior; HEK293T NPYLR7/Galpha15, GCaMP6s calcium fluorescence; activation, % at 10 µM; 0.15% of 270,000 active; in the data active = activation above about 40%;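 note: 0% = vehicle and 100% = reference agonist at the receptor; some compounds past the cut are filed as inactive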
NPYLR7 agonist max-min: recorded beside NPYLR7 agonist, whose call it bears; activation, %; measured here: Max-Min RFU normalised activation; some inactives read as strong as hits;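 span of the calcium signal over five minutes; 0% = vehicle and 100% = native peptide agonist; compound fluorescence can raise it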
* marks the source's active call; other numbers are inactive results; & = joins results of further samples. These rows are one share of the data (hit frequency here may not be typical).

SMILES	NPYLR7 agonist	NPYLR7 agonist max-min
Cc1ccccc1C(=O)N[C@@H]1CCCCC1NC(=O)C1CCN(C(=O)/C=C/c2ccccc2)CC1 (some centres not stated)	34.3	29.8
COC(=O)c1ccoc1CSc1nc2cc(Cl)ccc2c(=O)[nH]1	11.7	8.3
Cc1occc1C(=O)NC1CC(=O)N(CCCc2ccccc2)C1 (configuration not stated)	2.3	-0.9
COc1cccc(-c2cc(C(=O)NCc3ccc4c(c3)OCO4)c(C)n2-c2ccccc2)c1	-1.5	3.0
CCn1cc2c(n1)C(=O)N(c1ccccc1)C1c3ccccc3C(=O)N21 (configuration not stated)	16.4	13.2
CCOC(=O)CCC(=O)N1CCN(c2cc(Oc3cc(C)ccc3Cl)ncn2)CC1C (configuration not stated)	-6.6	1.7
CCN(CC)Cc1cnc2c(C(=O)N3CCCC3c3ccco3)cnn2c1 (configuration not stated)	-2.8	-5.2
CC(=O)NC1C(OCC(C)C)OC(COC(C)=O)C(OC(C)=O)C1OC(C)=O (configuration not stated)	-7.9	-10.0
CC(=O)Nc1ccc(S(=O)(=O)NNc2cccc(C)c2)cc1	-1.9	-3.8
CN(Cc1ccccc1C(F)(F)F)C(=O)NC1CCN2CCCC12 (configuration not stated)	3.2&-4.1	1.8&-4.0
Cc1nc(Cl)cc(Nc2cnn(C(C)(C)C)c2)n1	-0.5	-2.4
CCN(CC)CCn1ccnc1-c1ccc2onc(C)c2c1	-4.4	-7.6
CC(C)CN(CC(=O)N1CCSC1c1ccc(F)cc1)Cc1c(F)cccc1F (configuration not stated)	-0.8	3.2
O=C(NC(=S)NCCc1ccccc1)C1CCCCC1	0.9	29.2
Cc1ccnc(N2C(=O)CSC2c2ccc(Cl)cc2)c1 (configuration not stated)	-5.0	-9.7
CCOc1ccc2nc(NC(=O)c3ccc(OC)c([N+](=O)[O-])c3)sc2c1	0.8	-4.3
CCn1c(C2CCCN(C(=O)c3csc(NC)n3)C2)nn(C)c1=O (configuration not stated)	7.5	4.5
CC(C)CCNC(=O)/C(C#N)=C1\N=C(NC(=O)c2cccnc2)c2ccccc21	7.3	4.6
CC(NCc1ccc(C(C)(C)C)cc1)c1ccc(S(C)(=O)=O)cc1 (configuration not stated)	6.6	2.7
Cc1nc(C(F)(F)F)ccc1C(=O)N1CCC1(C)C(=O)Nc1nccs1 (configuration not stated)	4.8	2.0
CN1CC2(CCN(C(=O)CCc3ccc(=O)[nH]n3)C2)OC1=O (configuration not stated)	-4.0	-2.8
CCOC(=O)C(C)Sc1nc2c([nH]c3ccccc32)c(=O)n1-c1cccc(OC)c1 (configuration not stated)	-1.0	36.5
O=C(c1cccs1)N(Cc1nccn1Cc1ccc(C(F)(F)F)cc1)CC1CC1	4.8	14.5
COCCNC(=O)c1nn(-c2ccccc2F)c(=O)n(Cc2cccc(OC)c2)c1=O	7.3	12.1
Cc1ccc(Cn2c(C)c(C)n3c4c(=O)n(C)c(=O)n(C)c4nc23)cc1	-4.7	-3.2
CCN(CC)CCCNC(=O)c1nn2c(C(F)(F)F)cc(-c3cccs3)nc2c1Cl	-6.2	-11.0
C=CCn1c(C2CC(=O)N(C)C2)nc2ccccc21 (configuration not stated)	0.3	2.7
CCc1ccc(/C(Cl)=C/C2C(C#N)=C(C)N=C(C)C2C#N)cc1 (configuration not stated)	14.1	12.0
Nc1nc(/C=C/c2ccc(Br)cc2)nc(-c2ccccc2O)n1	4.9	1.9
Cc1cc(C)n2ncc(-c3ccccc3)c2n1	0.8	-1.7
Oc1cccc(O)c1	-6.4	-12.3
Cc1ccccc1CSc1nc(=O)n2cccc(C)c2n1	5.2	2.7
CC(=O)C(C)n1c(=O)c2c(nc3n(-c4ccccc4F)c(C)c(C)n23)n(C)c1=O (configuration not stated)	-1.0	3.8
Cc1ccsc1CN(C)C(=O)c1cnc(C(C)C)nc1C	0.5	42.1
CS(=O)(=O)NC1=NCN(Cc2ccccn2)CN1	-2.2	-4.0
OCC1CN=C(c2ccccc2)NO1 (configuration not stated)	-1.8	-4.3
O=C(Cn1cnc(Cl)c1Cl)NCc1n[nH]c(=O)c2ccccc12	-4.7	-11.4
Cc1ccc(NC(=O)C(C)Sc2n[nH]c(N)n2)cc1 (configuration not stated)	-0.7	-1.3
COc1ccc(-c2noc(-c3ccc(OC)c(OC)c3)n2)cc1	16.7	11.9
O=C(NCCn1nc(-c2ccncc2)ccc1=O)Nc1ccc(F)cc1F	9.6	1.4
COc1cccc(NC(=O)CSc2nc(=O)n(CCO)c3c2CCC3)c1	-10.8	-20.8
O=S(=O)(CCCOc1ccc2c(c1)OCO2)NC1CCCCC1	-1.2	0.9
CCCCNC(=O)c1cc(-c2ccc(F)cc2)nc2cc(C(C)(C)C)nn12	6.7	6.9
CCOc1ccc(/C=C2\N=C(c3ccccc3)OC2=O)c(OC)c1	1.2	-10.3
CCCn1c(=O)c2ccccc2n2c(SCc3ccccc3)nnc12	-10.9	-6.3
c1cc(N2CCOCC2)ncc1Nc1ccc2nnnn2n1	-3.3	-4.1
FC(F)(F)c1ccc(CNc2nc(-c3cc(Cl)cc(Cl)c3)nc3ccccc23)cc1	-0.6	2.9
CC(=O)c1cccc2c1OC(C)C(=O)N2Cc1ccc(F)cc1 (configuration not stated)	4.6	-0.5
C=CCOC(CN1CCN(C(=O)c2cc(C)nn2C)CC1)c1cccc(OC)c1 (configuration not stated)	3.2	6.8
N#Cc1c(-c2ccccc2Cl)c2c([nH]c1=S)CCCC2	-0.1	0.3
Cc1ccc(CNC(=O)CCC2CCCN(C(=O)c3ccc4c(c3)OCO4)C2)o1 (configuration not stated)	5.6	6.4
Cc1cccn2c(=O)nc(SCC(=O)Nc3ccc(F)cc3F)nc12	7.2	1.5
CC(Nc1ccc(S(=O)(=O)C(F)F)cc1)c1ccc(N2CCOC2=O)cc1 (configuration not stated)	5.5&0.9	4.1&-1.0
Cc1nc2ccccn2c1CN(C)C(=O)CC1(c2cccc(C(F)(F)F)c2)CC(=O)N(C2CC2)C1=O (configuration not stated)	16.0	4.1
COc1ccc(OC)c(NC(=O)NCCN(C(C)C)C(C)C)c1	-9.2	-14.5
Cc1nnc(-c2cc3ccccc3n2Cc2ccc(Br)cc2)o1	-5.7	-6.4
Cc1cc(CN(c2ccc(C#N)cc2)S(C)(=O)=O)on1	9.3	5.7
CCc1ccccc1NC(=O)N1CCSC1c1cccc(OCc2ccccc2)c1 (configuration not stated)	-3.7	-2.1
Cc1ccc(NC(=O)NCC(c2cccs2)N2CCc3ccccc32)cc1 (configuration not stated)	11.3	3.5
CCC(=O)Nc1ccc(NC(=O)Cc2ccccc2OC)cc1Cl	3.2	55.3

Entries shown so far containing bromine (two):
SMILES	NPYLR7 agonist	NPYLR7 agonist max-min
Nc1nc(/C=C/c2ccc(Br)cc2)nc(-c2ccccc2O)n1	4.9	1.9
Cc1nnc(-c2cc3ccccc3n2Cc2ccc(Br)cc2)o1	-5.7	-6.4

Molecules shown so far with a furan ring, fused or not (four):
SMILES	NPYLR7 agonist	NPYLR7 agonist max-min
COC(=O)c1ccoc1CSc1nc2cc(Cl)ccc2c(=O)[nH]1	11.7	8.3
Cc1occc1C(=O)NC1CC(=O)N(CCCc2ccccc2)C1 (configuration not stated)	2.3	-0.9
CCN(CC)Cc1cnc2c(C(=O)N3CCCC3c3ccco3)cnn2c1 (configuration not stated)	-2.8	-5.2
Cc1ccc(CNC(=O)CCC2CCCN(C(=O)c3ccc4c(c3)OCO4)C2)o1 (configuration not stated)	5.6	6.4

The listing continues.
SMILES	NPYLR7 agonist	NPYLR7 agonist max-min
COc1ccc(N2CCN(S(=O)(=O)CCCNC(=O)C(C)C)CC2)cc1	-1.4	-3.4
CCOC(=O)C1CCN(C(c2ccccn2)c2c(O)cc(C)n(CCOC)c2=O)CC1 (configuration not stated)	6.3	0.6
Cc1ccccc1CC(=O)N1CCOC(c2ccccc2)C1 (configuration not stated)	-4.0	10.9
O=C(OCc1nnc(-c2ccc(Br)cc2)o1)C1CCCCC1	-1.2	-3.5
CN1CCN(C(=O)NC2CC2c2ccccc2)C(c2ccccc2)C1 (configuration not stated)	2.7	-0.4
CCCn1ccnc1CN1CCc2onc(-c3cccc4ccccc34)c2C1	11.0	-0.1
COc1ncc(CN2CCC3(CCNC(=O)CC3)CC2)cn1	8.5	6.9
Cc1cc(C)n2nc(SCC(=O)c3ccccc3)nc2n1	1.2	5.4
O=C(c1cccc2c1NCCC2)N1CCO[C@@H]2CCCC[C@H]21	4.3	1.8
Cc1nc2sccn2c1C(=O)N1CCCC(CO)(Cc2ccc(F)cc2F)C1 (configuration not stated)	5.8	-0.4
COC(=O)c1c(C)cc(=O)oc1C	2.7	2.7
CC(=O)NCC(c1ccc(C(C)C)cc1)N1CCc2sccc2C1 (configuration not stated)	4.3	-0.4
O=C(c1ccc(S(=O)(=O)N2CCOCC2)cc1)N1CCc2ccccc21	4.0	5.1
Cc1ccc(-c2c(C)[nH]n3c(=O)cc(C)nc23)cc1	0.6	1.8
COCCNC(=O)CCC1CCN(C(=O)CCCCc2ccccc2)CC1	10.2	1.1
CSc1ncc(CN2CCCC(C(=O)c3ccc4c5c(cccc35)CC4)C2)cn1 (configuration not stated)	4.2	0.5
CCN(CC)S(=O)(=O)c1ccc(Br)c(C(=O)Nc2ccncc2)c1	7.6	1.5
CC12CC(NC(=O)N1c1cccc(C(=O)NCc3ccccc3)c1)c1ccccc1O2 (configuration not stated)	-2.7	-9.8
CNCC[C@@H](Oc1ccccc1)c1ccccc1	-6.1	3.4
N#CC(=Cc1ccco1)S(=O)(=O)c1ccccc1	-5.6	1.1

A different layout for part of the listing above.
smiles | NPYLR7 agonist | NPYLR7 agonist max-min
COC(=O)c1c(C)cc(=O)oc1C | 2.7 | 2.7
CC(=O)NCC(c1ccc(C(C)C)cc1)N1CCc2sccc2C1 (configuration not stated) | 4.3 | -0.4

(further entries)
SMILES	NPYLR7 agonist	NPYLR7 agonist max-min
C=C(C)CN(CC)C(=O)Cn1nc(C)c(S(=O)(=O)N2CCOCC2)c1C	-0.8	-2.7
Cc1ccccc1-n1c(Cc2ccccc2)nnc1SCc1cccc(F)c1F	-1.2	-2.8
O=C(NCc1n[nH]c(=S)n1-c1ccccc1)c1c(F)cccc1Cl	-2.8	-4.0
C=CCCC(O)CN(Cc1ccsc1)CC1CCCO1 (configuration not stated)	19.1	25.6
COc1ccc(CN2CCCn3cccc3C2c2cc(F)c(F)cc2F)c(OC)c1 (configuration not stated)	0.3	4.7
Cc1ccccc1N1C(=O)CSC1c1ccc(NC(=O)CCCCl)cc1 (configuration not stated)	37.2	38.1
COCCNC(=O)C1CCCN(C2CCN(c3nccc(OC)n3)CC2)C1 (configuration not stated)	26.0	20.9
CCOC(=O)c1[nH]c2ccccc2c1NC(=O)c1ccc(-c2ccccc2)cc1	28.9	30.2
O=c1nc(SCc2cccc([N+](=O)[O-])c2)nc2ccccn12	14.2	11.2
Cc1c(C(=O)N2[C@@H]3CC[C@H]2CN(C)C(=O)C3)cnc2ccnn12	-1.5	-1.1
CC1(C(=O)NS(=O)(=O)c2ccc(Br)cc2)CCN1C(=O)CCc1cccs1 (configuration not stated)	0.9	-1.8
O=C(N1CCC(c2c[nH]c3ccc(F)cc23)CC1)C12CC3CC(CC(C3)C1)C2	25.8	11.1
COc1ccc(NC(=O)C2Cc3ccccc3S2)c(OC)c1 (configuration not stated)	3.6	3.7
CCOc1ccc2nc(N=Cc3nc(-c4cccc(OC)c4)oc3O)sc2c1	-4.5	-7.1
O=C(Cc1ccc(F)cc1)NCCNc1nc(-c2cccc(Br)c2)nc2ccccc12	9.8	20.0
C=C(C)CC1C(Br)=CCC[N+]1(C)C (configuration not stated)	-2.3	-7.8
Cn1cc(C(N)=O)cc1C(=O)OC1CCc2ccccc2C1 (configuration not stated)	-5.2	237.3
COc1ccc(CN(C(=O)c2ccc([N+](=O)[O-])cc2Cl)C(C)C)cc1OS(C)(=O)=O	0.1	-0.9
COc1ccc(C(NC(=O)C2CCN(C/C=C/c3ccc(OC(C)=O)c(OC)c3)CC2)c2ccccn2)cc1 (configuration not stated)	-10.3	-4.6
Cc1cn2c3c(=O)[nH]c(=O)n(C)c3nc2n1CCN1CCN(c2ccccc2F)CC1	2.2	1.5
Cc1ccn2cc(CNC(=O)NCC3CCCC3)nc2c1	-3.6	-3.0
Cc1noc(-c2cccc(C(F)(F)F)c2)c1C(=O)NCCCc1ccccc1	2.8	-4.2
CCOc1ccc(N2CC(CNS(=O)(=O)N(C)C)CC2=O)cc1 (configuration not stated)	3.7	4.9
C=CCOC(CN1CCN(C(=O)c2cc3ccccc3s2)CC1)c1cccc(N2CCCC2)c1 (configuration not stated)	31.9	22.4
CC1CCCCC1NC(=O)CS(=O)Cc1coc(-c2ccc(F)cc2)n1 (configuration not stated)	-14.6	-16.3
CC(C)c1nc(N2CCCC3(CC2)CNC(=O)O3)no1 (configuration not stated)	1.4	-1.2
CCN1CCN(C(=O)CCc2nnc(Cc3ccc(-c4ccccc4)cc3)o2)[C@@H](C)C1=O	-0.8	-2.1
CCOc1ccc(NC(=O)N2CCc3cc(OC)c(OC)cc3C2CN)cc1 (configuration not stated)	4.4	1.7
CCCCCc1ccc(C(=O)N(Cc2ccc(F)cc2)C(C)C(=O)c2c(C)c(C(=O)OC)n(C)c2C)cc1 (configuration not stated)	-7.6	-5.0
CC/C=C(/C)C(=O)NCc1ccc(N2CCC(CO)CC2)cc1	11.8	10.8
CCCCn1[nH]c(C)cc1=O	5.0	9.8
C=CCN(CC(=O)N(CCc1ccc(OC)c(OC)c1)Cc1sccc1C)S(=O)(=O)c1c(C)cc(C)cc1C	-1.2	5.8
CCOC(=O)C1CCCN(C(=O)c2coc(CN(Cc3cccc(C)c3)Cc3ccc4c(c3)OCO4)n2)C1 (configuration not stated)	-7.7	13.0
Cn1cc(CCC(=O)NC2CC(=O)N(Cc3cccc4ccccc34)C2)cn1 (configuration not stated)	9.7	5.1
CCOC(=O)c1c(NC(=O)C(c2ccccc2)c2ccccc2)sc2c1Cc1ccccc1-2	2.7	-0.4
